# PrP UTR inh: inhibition of PrP 5' UTR reporter expression; cell-based PrP 5' UTR mRNA reporter, plate reader; AID 488862, 2010; actives 0.35% (n = 340,000); inhibition, % (concentration not given with the values);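 active = every replicate at 50% or more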;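 also: 0 = median of the neutral control wells; tested in H4 reporter cells; numbers are from one replicate; inactives centre near -14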
# Sa ugtP lethal: growth inhibition of ugtP-null S. aureus, primary screen, RN4220 ugtP deletion, OD600; 16 h; some inactives read as strong as hits; growth inhibition, % (concentration not given with the values); AID 1259309, 2017; actives 0.54% (n = 330,000);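 active = z-score under -3 and OD600 up to 0.15 on both plates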;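 also: plate controls were untreated wells for no effect and antibiotic for full effect; wells of about 80 µL received 100 nL stock; the first replicate is given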
# BJeLR lethal: MLPCN primary cell-based screen for lethality selective to Ras in HRASV12 cells | inhibition, % (test concentration not listed) | actives 0.17% (n = 300,000) | BJeLR (HRASV12) viability, CellTiter-Glo ATP luminescence, 48 h; reference of the scale not given here;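 active = replicate mean above 50%; inconclusive = above 50% but judged a plate artefact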;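 also: 50 nL library stock added to about 25 µL; numbers are from one replicate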
# Mtb hypoxia rep: PubChem AID 1159583. M. tuberculosis hypoxia-regulated fluorescent reporter, fluorescence. fluorescence inhibition, % (test concentration not listed). actives 0.1% (n = 300,000);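 active = 35 to 45% if threefold the growth effect, above 45% if 1.5-fold the growth effect; inactive = the rest, general growth blockers included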;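 also: wells of about 50 µL received 100 nL stock; 0% = vehicle wells and 100% = reference inhibitor wells; whole bacteria with a GFP reporter of the hypoxia response; strong numbers were not always called active; many hits fall short of the cut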
# Autofluor counter: compound fluorescence in toxin protease inhibitor counterscreen; compound autofluorescence counterscreen, microsphere flow cytometry; active compounds read high; fluorescence intensity (concentration not given with the values); actives 3.1% (n = 360,000); AID 624483;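 active = at least 3 SD above the mean of all compounds, about 16000 in these data; inconclusive = too few beads counted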;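 also: 100 nL of 1 mM stock went into each well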
# Sa RN4220 lethal: growth inhibition of S. aureus RN4220, primary screen, OD600; 16 h; inhibition, % (no concentration beside the values); actives 0.33% (n = 330,000); AID 1259311, 2017;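 active = z-score of -3 or lower and OD600 up to 0.18 on both plates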;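 also: plate controls were untreated cells for no effect and reference antibiotic for full effect; stock transfer was 100 nL into about 80 µL; one replicate is shown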
# Mtb hypoxia rep growth: recorded beside Mtb hypoxia rep, whose call it bears; growth inhibition, %; measured here: M. tuberculosis growth (absorbance);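 0% = vehicle and 100% = reference antibiotic; read after six days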
# The depositor's hits bear a star; ? = inconclusive; / = not tested or not shown.
canonical_smiles	PrP UTR inh	Sa ugtP lethal	BJeLR lethal	Mtb hypoxia rep	Mtb hypoxia rep growth	Autofluor counter	Sa RN4220 lethal
Cc1ccc(OCC(=O)NNC(=O)C2CCC2)cc1C	4	1	/	4	8	3848	2.7
CCOC(=O)CN(C(=O)CSc1nnnn1C)c1ccccc1	9	1	/	0	4	3720	1.2
COc1cccc(SCC2CSc3nc4ccccc4c(=O)n32)c1 (configuration not stated)	0	21	-8	18	16	4348	9.5
CC1(C)Cc2cccc(OCC(=O)N3CCN(c4ccccc4)CC3)c2O1	-72	-6	-1	1	13	2743	-2.9
CCOc1ccc(C=NNC(=O)C(C)N(c2ccc(OC)cc2)S(C)(=O)=O)cc1OCC (configuration not stated)	/	5	/	0	7	/	4.7
CC(C)n1c(O)c(C2c3cc(Cl)ccc3Oc3[nH]c(=O)n(C(C)C)c(=O)c32)c(=O)[nH]c1=O (configuration not stated)	-18	2	22	15	9	6259	36
COc1ccccc1N1CCN(C(=O)c2cc(S(=O)(=O)N3CCOCC3)ccc2C)CC1	-79	2	/	2	1	5362	2.9
c1ccc(-c2nnc(CSc3nc4ccccc4[nH]3)o2)cc1	-12	3	-10	7	1	?	2.8
CCOc1cc(/C=N\n2nnnc2N)ccc1O	-22	/	3	/	/	3534	/
CCN1CCN(CCCNC(=O)c2ccc(NC(=O)C3=CSCCO3)cc2)CC1	-12	-10	0	-15	-13	5711	-4.3
O=C(Nc1cccc(F)c1)c1ccc2c(c1)OCO2	-98	2	-4	5	3	2774	1.6
CC(=O)c1cccc(S(=O)(=O)N2CCC(c3nc4ccccc4[nH]3)CC2)c1	-23	12	10	-4	-11	4609	1.0
COc1ccccc1CNc1nc2nc(C)cc(=O)n2[nH]1	-8	1	6	/	/	2944	-1.1
CCC(=O)N1c2ccc(S(=O)(=O)NCCc3ccccc3)cc2CC1C (configuration not stated)	-2	2	5	7	0	5872	6.2
Cc1ccc(NC(=O)c2oc3ccc(S(=O)(=O)N4CCOCC4)cc3c2C)c(C)c1	-31	7	8	5	5	3459	4.4
Cc1ccc(NC(=O)Nc2ccccc2C(=O)NCc2ccccc2)cc1	-16	9	5	/	/	2658	1.3
CC1=C(C(=O)Nc2ccccc2)C(c2ccc(C)o2)n2ncnc2N1 (configuration not stated)	-17	-9	5	3	6	3371	-14
COc1ccc(N(C)S(=O)(=O)c2ccc3c(c2)CCC(=O)N3)cc1	-14	-4	-2	-10	-10	20669*	2.8
CCCN(CCC)Cc1c(C(=O)NN=Cc2c[nH]c3ccccc23)nnn1-c1nonc1N	/	-5	/	-4	3	/	4.9
CSCCC(NC(=O)CCC(=O)OCC(=O)[C@@]1(O)CCC2[C@@H]3CCC4=CC(=O)C=C[C@]4(C)C3[C@@H](O)C[C@@]21C)C(=O)O (some centres not stated)	-6	-2	-1	11	13	2955	20
O=C(CSC1=NS(=O)(=O)c2cc(Cl)ccc2N1)Nc1cccc(F)c1	1	9	4	9	16	?	7.2
CN1CCN(C(=O)C23CC4CC(C2)CC(c2ccccc2)(C4)C3)CC1	-16	-2	1	-5	9	4821	-1.5
O=C(CSc1nc(-c2ccc(F)cc2)cc(C(F)(F)F)n1)NCc1ccco1	-12	6	1	/	/	3366	-2.5
CCCC(NC(=O)c1ccc(Br)o1)c1nc2ccccc2[nH]1 (configuration not stated)	-60	7	/	6	7	8277	0.9
CC(=O)Nc1ccc(S(=O)(=O)N(Cc2cc3ccc(C)cc3[nH]c2=O)CC2CCCO2)cc1 (configuration not stated)	-6	3	-12	2	9	5478	3.1
CCOC(=O)c1c(NC(=O)c2ccco2)sc2c1CCCC2	-20	3	8	5	2	8150	0.4
CCN(c1ccccc1)S(=O)(=O)c1ccc(Oc2ccc(-n3ccnc3)cc2)nc1	3	3	-5	/	/	3998	-3.0
COC(=O)c1ccc(C(=O)OCc2nc3cc4ccccc4cc3[nH]2)cc1	-13	-4	-8	10	7	2688	-6.0
Cc1ccn2c(NC3CCCCC3)c(C(C)C)nc2c1	-8	2	-1	10	3	3057	2.2
COc1ccc(CNC(=O)Nc2ccc([N+](=O)[O-])cc2)cc1	-7	-20	5	-1	17	4100	2.1
CSCCC1NC(=O)N(CC(=O)Nc2cccc(S(=O)(=O)N3CCCCCC3)c2)C1=O (configuration not stated)	-7	-3	/	5	11	3671	6.3
COc1ccccc1Oc1ncnc2sccc12	-10	10	2	14	11	3310	2.2
COc1ccc(OCCCC(=O)Nc2cccc(C(C)=O)c2)cc1	-31	4	8	4	4	7982	7.0
O=C(CSc1nnc(-c2ccccc2O)o1)NC1CCCCC1	-7	5	-9	4	2	4981	1.4
CC(=O)COC(=O)CNC(=O)c1ccc(Br)cc1	-15	-6	5	0	7	?	-0.4
CSCC[C@H](N)C(=O)NCC1CCC(C(=O)Nc2ccc3c(c2)OCO3)CC1 (some centres not stated)	-3	-9	7	/	/	5170	1.9
CCN1CCC2(CCN(Cc3cn[nH]c3-c3ccc(OC)c(F)c3)C2)C1 (configuration not stated)	-6	14	-4	0	0	3159	2.2
CCOc1ccc2[nH]c(=O)c(C(c3nnnn3CCOC)N3CCOCC3)cc2c1 (configuration not stated)	12	-4	-1	/	/	2846	-0.2
COc1cc2oc3ccccc3c2cc1N(CC(=O)N1CCCCC1)S(=O)(=O)c1ccc(C)cc1	-17	-5	-3	/	/	2554	-5.5
COc1ccc(NC2CCCN(C(=O)Cn3ccc(C)n3)C2)cc1OC (configuration not stated)	-2	-4	-4	-12	-10	4695	-2.0
CC(C)Oc1ccc(S(=O)(=O)N2CCOCC2)cc1NC(=O)Cc1cccs1	-21	5	-4	2	-2	?	1.1
CN1C(=O)C2CN(CCc3ccccc3)CNC2N(C)C1=O (configuration not stated)	-10	5	6	/	/	4083	1.3
CCOC(=O)COc1ccc(S(=O)(=O)NCc2ccco2)cc1	-8	13	9	4	1	8048	3.0
Cc1noc(C)c1CN(C(=S)NC1CC2CCC1C2)c1ccccc1 (configuration not stated)	-23	9	-1	16	5	4701	6.0
O=C(CNC(=O)c1ccccc1F)OCc1nc2ccc(Cl)cc2n1CCO	-18	11	/	7	-1	6423	4.5
COc1ccccc1C(=O)COC(=O)/C(=C/c1ccccc1)NC(C)=O	3	3	4	13	2	4981	0.5
COc1ccc2[nH]cc(CCn3ccc(O)c(C/C=C/c4ccccc4)c3=O)c2c1	-4	-6	7	2	18	3268	26
ON=Cc1ccccc1OCc1ccc(Cl)cc1	/	30	/	5	1	/	4.5

# Random excerpt: 3 records from the list.
canonical_smiles	PrP UTR inh	Sa ugtP lethal	BJeLR lethal	Mtb hypoxia rep	Mtb hypoxia rep growth	Autofluor counter	Sa RN4220 lethal
ON=Cc1ccccc1OCc1ccc(Cl)cc1	/	30	/	5	1	/	4.5
CN1C(=O)C2CN(CCc3ccccc3)CNC2N(C)C1=O (configuration not stated)	-10	5	6	/	/	4083	1.3
COc1ccc2[nH]cc(CCn3ccc(O)c(C/C=C/c4ccccc4)c3=O)c2c1	-4	-6	7	2	18	3268	26

# (listing goes on)
canonical_smiles	PrP UTR inh	Sa ugtP lethal	BJeLR lethal	Mtb hypoxia rep	Mtb hypoxia rep growth	Autofluor counter	Sa RN4220 lethal
CSc1sccc1C=NNC(=O)c1ccncc1	/	0	/	/	/	/	9.3
CC(C)c1ccc(CNc2nnnn2C)cc1	-30	0	-2	-9	6	3631	1.1
CCOC(=O)C1=CN(CC)S(=O)(=O)NC1CC (configuration not stated)	-7	-2	/	5	-3	2961	2.6
Cc1cc(NS(=O)(=O)c2ccc(NC(=O)CSc3nc4sc(C(=O)O)c(C)c4c(=O)[nH]3)cc2)no1	-20	5	9	4	-2	4973	5.0
CS(=O)(=O)N1CCN(c2nnc(-c3ccccc3)c3ccccc23)CC1	-12	9	-20	-5	3	8974	0.3
COc1ccc(C(=O)Nc2cnccn2)cc1[N+](=O)[O-]	-25	8	-3	-10	-8	/	1.2
COc1ccc(NC(=O)c2ccc(S(=O)(=O)NCc3cccnc3)cc2)cc1	-22	-1	-5	5	3	3680	1.3
COCCNC(=S)Nc1ccccn1	-18	11	-6	6	10	4508	5.9
Cc1c(Cl)cccc1NC(=O)Cn1nc(C)n2cccc2c1=O	-2	-2	9	-1	5	4492	-2.6
CN1CCN(C(=S)NC(=O)c2ccco2)CC1	12	0	-4	-1	-1	3724	7.9
CCOc1cc(/C=C2\SC(=N)N(c3nccs3)C2=O)ccc1OCCN1CCOCC1	-5	-27	9	2	3	1994	5.9
O=C(CC1Sc2ccccc2NC1=O)NCc1ccc(Cl)cc1 (configuration not stated)	-21	4	-22	2	-4	3752	4.2
CCOC(=O)COc1coc(CN2CCN(c3ccc(F)cc3)CC2)cc1=O	-7	1	10	11	1	5245	6.9
CCc1ccc2nc(N3CCN(C(=O)C(C)(C)C)CC3)sc2c1	-51	1	11	16	8	5636	4.2
Cc1cc(NC(=O)CSc2ccccc2)no1	-12	-11	0	-4	0	8543	-5.8
COc1ccc(N2CS(=O)CC2=O)cc1 (configuration not stated)	-5	11	-4	-2	0	2545	-3.5
O=C(Nc1ccccc1)Nc1ccc2ocnc2c1	-14	1	-8	0	2	3053	-6.6
COc1ccc(NC(=O)C(=Cc2ccc(OS(=O)(=O)c3ccc(C)cc3)cc2)NC(=O)c2ccccc2)cc1	/	-8	/	12	1	/	8.7
COc1ccc(C2(c3ccc(OC)cc3)NC(=O)N(CC(=O)NCC(C)c3ccccc3)C2=O)cc1 (configuration not stated)	0	21	/	3	5	4191	-0.2
Cc1ccc(C)c(NC(=S)N(CCc2nc3cc(C)c(C)cc3[nH]2)Cc2cccnc2)c1	-25	11	-13	3	4	8853	1.3
O=C(O)CCN1C(=O)c2ccc(NC(=O)CSCc3ccccc3)cc2C1=O	-8	0	-3	-1	-3	2678	-1.2
CCOC(=O)CC1CCCCN1C(=O)CCCn1nnnc1CN1CCOCC1 (configuration not stated)	-2	8	-1	2	2	4071	2.5
O=C(CC(=O)Nc1ccccn1)Nc1ccccn1	-20	3	-5	2	-8	/	4.3
CCCS(=O)(=O)N1CCC(C(=O)NCCCN2CCC(Cc3ccccc3)CC2)CC1	1	0	-6	5	16	9901	2.1

# In the list so far, two contain bromine:
canonical_smiles	PrP UTR inh	Sa ugtP lethal	BJeLR lethal	Mtb hypoxia rep	Mtb hypoxia rep growth	Autofluor counter	Sa RN4220 lethal
CCCC(NC(=O)c1ccc(Br)o1)c1nc2ccccc2[nH]1 (configuration not stated)	-60	7	/	6	7	8277	0.9
CC(=O)COC(=O)CNC(=O)c1ccc(Br)cc1	-15	-6	5	0	7	?	-0.4

# Continued:
canonical_smiles	PrP UTR inh	Sa ugtP lethal	BJeLR lethal	Mtb hypoxia rep	Mtb hypoxia rep growth	Autofluor counter	Sa RN4220 lethal
CCC(=O)Nc1ccc(NC(=O)c2cc3ccccc3o2)cc1	-30	4	/	/	/	4816	2.3
CC(NC(=O)CCc1nnc(C2CCCCC2)o1)c1ccc(F)cc1 (configuration not stated)	-36	8	1	15	3	2700	3.0
COc1ccc(OC)c(S(=O)(=O)Nc2cccc(F)c2)c1	-13	3	-3	4	-2	16709*	6.5
CCNC(=O)NC(=O)C(C)Sc1ccc2c(c1)OCCO2 (configuration not stated)	-11	1	/	5	2	2219	-3.3
Cc1cc[n+](-c2[nH]c(=O)sc2/C=N/N=C(\[O-])c2ccncc2)cc1C	-13	/	-5	/	/	4610	/
CCOC(=O)c1c(S(=O)(=O)NCC(C)c2ccccc2)c(C)n(C)c1C (configuration not stated)	-7	1	5	1	-1	4577	-2.8
CN(Cc1cnccn1)C(=O)CC1C(=O)NCCN1Cc1ccc(F)cc1Cl (configuration not stated)	-23	10	3	3	2	4522	3.0
CC(=O)Nc1ccccc1C(F)(F)F	-22	10	8	3	2	3741	2.5
COc1ccccc1CC(=O)NCCc1ccc(S(N)(=O)=O)cc1	3	1	1	-4	6	6342	2.1
CCC(=O)Nc1nnc(S(=O)(=O)N2CCc3ccccc32)s1	-11	-12	1	-5	-5	4896	6.3
O=C(CN1CCCCC1)NN=Cc1cccc(C(F)(F)F)c1	/	6	/	-9	-5	/	2.6
Cc1cccc(NC(=O)c2cc(C)nc3ccccc23)c1	/	2	11	0	-3	4197	-1.1

# Screening results as filed in PubChem BioAssay.
